RE007 growth inh: qHTS Assay for Inhibitors of the HIV-1 protein Vpr | S. pombe RE007 Vpr strain, BacTiter-Glo ATP luminescence, 24 h; control for the full effect not named in the record | 360,000 tested, 0.21% active | Potency, µM (doses to about 92.2 µM), without a hit: at the highest dose activity change, negative = less growth; active = well fitted falling curve with a large enough effect; inconclusive = small, poorly fitted or top-dose-only effect; inactive = no such curve, though single readings can be large or run the other way;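 further: on the % scale 0 is the no-effect control and ±100 the full control effect; nearly all actives have a fitted effect of over 50% in size; the assay follows cell death caused by Vpr and the record does not say whether a fall means rescue or toxicity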
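Fission yeast RE007 carrying one integrated HIV-1 vpr copy, seeded at OD 0.01 in PMG+AL medium with 23 nL pinned compound. Grown 24 h at 30 degrees; viability read by BacTiter-Glo luminescence after 5 min.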
NS1 function inh: qHTS Assay for Inhibitors of Influenza NS1 Protein Function; AID 2326, 2010; S. cerevisiae slowed by influenza A NS1, growth recovery by OD600; Potency, µM (titrated, usually from 46.1 µM), without a hit: at the top dose activity, positive = more growth; 270,000 tested, 0.4% active; active means well fitted rising curve with a large enough effect; inconclusive means small, poorly fitted or top-dose-only effect; inactive means no such curve, though single readings can be large or run the other way; further: nearly all actives have a fitted effect of over 50% in size
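Compounds were scored for reversing the slow growth caused by influenza A NS1 in S. cerevisiae, measured by optical density at 600 nm. Assay medium contained 2% galactose at pH 6.0; NS1-free yeast of the same strain were the positive control.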
SARS PLpro yeast: qHTS of Yeast-based Assay for SARS-CoV PLP; S. cerevisiae expressing SARS-CoV PLpro, growth rescue; control for the full effect not named in the record; 330,000 tested, 0.19% active; Potency, µM (highest dose often 32.9 µM), for inactives: at the top dose activity, positive = growth rescue; AID 485353, 2010; active means well fitted rising curve with a large enough effect; inconclusive means small, poorly fitted or top-dose-only effect; inactive means no such curve, though single readings can be large or run the other way; further: 0% is about no effect; nearly all actives have a fitted effect of over 55% in size; growth read by luminescence after 48 h
MARV entry inh: qHTS for inhibitors of binding or entry into cells for Marburg Virus; Marburg virus pseudotyped entry inhibition, cell reporter; control for the full effect not named in the record; about a third of the inactives were read at about 46 µM; Potency, µM (highest dose often 37.8 µM), for the others: at the highest dose activity change, negative = inhibition, actives largely listed as inhibitors; 300,000 tested, 1.8% active; active = well fitted inhibition curve with a large enough effect; inconclusive = small, poorly fitted or top-dose-only effect, or effect the other way; inactive = flat fitted curve, though single readings scatter; tested in HEK293 cells; about a fifth of its hits are not listed in these tables; further: on the % scale 0 is the no-effect control and ±100 the full control effect; luciferase read-out
LASV entry inh: qHTS for Inhibitors of binding or entry into cells for Lassa Virus. Lassa virus pseudotype entry inhibition, cell reporter; control for the full effect not named in the record. Potency, µM (series often up to 37.9 µM), for the others: at the top dose activity change, negative = inhibition, hits mostly inhibitors. 300,000 tested, 1.2% active. AID 540256, 2011; active means well fitted inhibition curve with a large enough effect; inconclusive means small, poorly fitted or top-dose-only effect, or effect the other way; inactive means flat fitted curve, though single readings scatter; tested in HEK293 cells; further: on the % scale 0 is the no-effect control and ±100 the full control effect; nearly all actives have a fitted effect of over 50% in size; luciferase read-out
StopGo reporter: High Throughput Screening for Foot and Mouth Disease Virus Antivirals; 410,000 tested, 1.2% active; human cells with a luciferase reporter of 2A StopGo recoding; control for the full effect not named in the record; Potency, µM (highest dose often 57.9 µM), inactives show at the highest dose signal change, negative = less light; AID 1159524, 2015; active = well fitted falling curve with a large enough effect; inconclusive = small, poorly fitted or top-dose-only effect; inactive = no such curve, though single readings can be large or run the other way; tested in HEK293T cells; further: on the % scale 0 is the no-effect control and ±100 the full control effect; nearly all actives have a fitted effect of over 45% in size; luciferase light after 4 h
Cruzain inh noDet: qHTS Assay for Promiscuous and Specific Inhibitors of Cruzain (without detergent); Cruzipain (Trypanosoma cruzi), P25779; purified cruzain, Z-FR-AMC fluorescence, no detergent; Potency, µM, inactives show max response, negative = inhibition, hits mostly inhibitors; 200,000 tested, 2.3% active;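 further: plate controls were enzyme without inhibitor for no effect and buffer without enzyme for full effect; nearly all actives have a fitted effect of over 40% in size; top concentration of the series not given in the record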
Target sequence (P25779 123-467 limits assumed): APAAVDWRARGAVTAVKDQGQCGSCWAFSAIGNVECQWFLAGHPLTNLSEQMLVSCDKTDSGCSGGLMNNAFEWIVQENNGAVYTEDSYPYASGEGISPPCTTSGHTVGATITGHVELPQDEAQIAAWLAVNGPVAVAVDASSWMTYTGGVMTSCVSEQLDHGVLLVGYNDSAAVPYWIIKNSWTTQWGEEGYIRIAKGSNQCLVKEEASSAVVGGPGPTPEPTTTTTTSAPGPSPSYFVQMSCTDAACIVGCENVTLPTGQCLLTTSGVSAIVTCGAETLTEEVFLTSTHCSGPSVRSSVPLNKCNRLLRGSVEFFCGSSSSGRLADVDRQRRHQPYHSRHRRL
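Purified cruzain at 1.5 nM, pre-incubated 15 min with compound at room temperature in 100 mM sodium acetate pH 5.5, 5 mM DTT, 0.00005% Triton X-100. Reaction started with 2 uM Z-FR-AMC; AMC fluorescence increase over 60 s gives rate.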
Cruzain Triton: qHTS Assay for Promiscuous and Specific Inhibitors of Cruzain (with detergent); 200,000 tested, 0.43% active; purified cruzain, Z-FR-AMC fluorescence, 0.01% Triton; Potency, µM, for inactives: max response, negative = inhibition, actives largely listed as inhibitors;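 further: plate controls were neutral wells for no effect and buffer without enzyme for full effect; nearly all actives have a fitted effect of over 40% in size; top concentration of the series not given in the record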
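Read-out: AMC fluorescence (360 nm excitation, 450 nm emission), four reads over 2 min, first-to-third difference used. Conditions: cruzain 1.5 nM, Z-FR-AMC 2 uM, pH 5.5 acetate, 5 mM DTT, 0.01% Triton X-100.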
* marks the source's active call; other numbers are inactive results; ? = inconclusive; nt = no result given; & = joins results of further samples; [ ] = remark or other dose. Unless noted, the call rests on the fitted dose curve; in most records, active means well fitted curve in the direction sought with a large enough effect; inconclusive means small, poorly fitted or top-dose-only effect, or another doubt; inactive means no such curve, though single readings can be large; an effect the other way counts as inactive or inconclusive. Potency means the concentration at half of the fitted maximal effect.

SMILES	RE007 growth inh	NS1 function inh	SARS PLpro yeast	MARV entry inh	LASV entry inh	StopGo reporter	Cruzain inh noDet	Cruzain Triton
O=C1[C@@H]2[C@@H]3C[C@@H]([C@H]4ON=C(c5ccc(Cl)cc5)[C@@H]34)[C@@H]2C(=O)N1c1ccc2c(c1)OCO2	-6.3%	?	-27.0%	?	-13.3%	0.0%	-17.3%	-5.3%
CCC(C)C(NC(=O)/C(=C\c1ccccc1)NC(=O)c1ccc(OC)cc1)C(=O)O (stereo not given)	22.7%	-0.5%	-0.2%	-8.9%[46.1 µM]	-4.2%	5.8%	nt	nt
CCN(CC)CCCNC(=O)c1cc2c(=O)n(CC)c3ccccc3c2s1	-11.6%	-4.0%	-1.5%	nt	nt	-14.1%	nt	nt
O=C(CCCCCn1c(=S)[nH]c2ccc(Br)cc2c1=O)NCC1CCCO1 (stereo not given)	0.5%[3.69 µM]	6.9%	8.2%	-4.4%	15.9%	-13.8%	-15.2%	2.4%
Cn1cnc(S(=O)(=O)N2CCC(C(=O)NCc3ccccc3)CC2)c1	nt	nt	nt	nt	1.2%[46.1 µM]	-6.9%	-13.6%	1.2%
O=C(NCc1ccc2c(c1)OCO2)c1ccc2c(c1)N(Cc1ccccc1F)C(=O)c1ccccc1S2=O (stereo not given)	nt	nt	nt	-22.6%[46.1 µM]	-2.4%[46.1 µM]	-2.2%	?	0.9%
CCN1CCN(C(=O)c2ccccc2N(Cc2ccccc2)S(=O)(=O)c2ccc(C)cc2)CC1	4.6%	-1.2%	-2.7%	5.8µM*	?	-0.5%	1.4%	-0.6%
CC(CC(=O)NCCc1ccc(S(N)(=O)=O)cc1)c1ccccc1 (stereo not given)	1.4%	-2.7%	3.4%	nt	nt	3.4%	nt	nt
CCCCN=C(C)c1c(O)c2ccccc2oc1=O	-16.4%	-229.1%	-10.3%	?	-0.1%	9.7%	-3.7%	-3.0%
COc1cccc2cc(C(=O)c3ccc([N+](=O)[O-])cc3)oc12	-13.3%	?	-0.2%	-2.5%[46.1 µM]	5.8%	45.1%[activator]	nt	nt
CC1Cc2nc(SCC(=O)Nc3ccc4c(c3)OCO4)n(-c3ccc(F)cc3)c(=O)c2S1 (stereo not given)	-11.5%	-90.2%&0.6%	-1.1%	-3.5%	nt	0.0%	nt	nt
Cc1ccc(-n2nc(C)c(NS(=O)(=O)c3ccccc3)c2C)cc1C	-1.8%	-20.0%	-1.8%	1.2%	?	9.2%	4.9%	-6.7%
COc1cc(C2C3=C(COC3=O)Oc3cc4c(cc32)OCO4)ccc1OC(C)=O (stereo not given)	5.6%	nt	nt	-9.8%	-5.8%[46.1 µM]	-8.2%	nt	nt
CCCn1c(SCC(=O)NC2CCCCC2C)n[nH]c1=O (stereo not given)	-7.5%	9.9%	nt	1.1%[46.1 µM]	1.5%	-17.8%	-17.8%	-2.5%
Cc1ccc(CNC(=O)Cn2c(=O)n(CC(=O)N3CCCCC3)c(=O)c3sccc32)cc1	-9.9%	-6.9%	-1.9%	nt	nt	-10.9%	nt	nt
CN(NS(C)(=O)=O)c1c(C#N)c(C(F)(F)F)nn1C	-25.2%	nt	1.5%	?	12.7%[46.1 µM]	35.4%[activator]	nt	nt
Cc1ccc(CNC(=O)CCCn2c(=O)c3sccc3n(CC(=O)Nc3c(C)cccc3C)c2=O)cc1	nt	nt	nt	nt	?	-17.4%	-3.3%	-3.2%
Cc1ccc(Nc2c(-c3ccc(Br)o3)nc3ccccn23)cc1	nt	nt	nt	16.9%[46.1 µM]	-2.2%[46.1 µM]	30.8%[activator]	3.3%	-8.6%
COc1cccc(N2CCN(S(=O)(=O)c3ccc4ccccc4c3)CC2)c1	6.7%	nt	-0.9%	?	?	-13.0%	nt	nt
N#Cc1cccc(C(c2nnnn2Cc2ccccc2)N2CCCC2)c1 (stereo not given)	-3.6%	-4.6%	7.9%	-0.2%	1.8%	nt	7.6%	4.6%
O=C(CSc1ccc(-c2ccccc2)nn1)N1CCCc2ccccc21	-26.6%	-1.5%	-21.2%	-0.4%	?	-26.0%	-4.9%	0.2%
COc1ccc(OC)c(C2NC(=O)c3sc(=S)n(-c4ccccc4)c3N2)c1 (stereo not given)	-2.2%	-1.3%[9.22 µM]	10.8%	0.9%	-10.1%	-12.1%	-23.7%	-6.6%
COc1ccc(OC)c(N(CC(=O)N2CCCC2)S(=O)(=O)c2ccc(OC)c(OC)c2)c1	6.8%	4.5%	2.9%	19.1%	-26.3%	nt	24.9%	5.3%
O=C(CSc1nc(Nc2ccccc2)nc(N2CCOCC2)n1)Nc1cc(Cl)ccc1O	-3.0%	1.1%	4.0%	nt	nt	39.8µM*	nt	nt
CCc1nn(CC(=O)NCc2cccc(OC)c2OC)c(=O)c2cc3occc3n12	nt	nt	nt	27.0%[46.1 µM]	nt	-17.2%	-10.7%	0.4%

(cont.)
SMILES	RE007 growth inh	NS1 function inh	SARS PLpro yeast	MARV entry inh	LASV entry inh	StopGo reporter	Cruzain inh noDet	Cruzain Triton
Cc1cccc(NC2=C(NCCO)C(=O)c3ccccc3C2=O)c1	-10.9%	-22.6%	-17.7%	41.5%	3.0%	?	-15.0%	-8.8%
CN(C)CC/C=C1\c2cc(F)ccc2CSc2ccccc21	10.6%	-5.7%	-4.3%	?	16.4µM*	?	-6.3%	-1.4%
Cc1nc2ccc(NS(=O)(=O)c3c(F)cccc3F)cc2s1	14.5%	nt	-0.6%	-21.9%	-11.9%	-6.8%	nt	nt
Cc1ccc(NC(=O)CCC(=O)O)cc1F	16.4%	2.6%	1.7%	21.2%	-1.9%	0.0%	3.4%	4.4%
O=C(Cc1ccccc1)Nc1cccc(-c2nc3ncccc3o2)c1	8.6%	-11.0%	4.3%	?	-25.0%	-4.9%	13.9%	5.8%
Cc1nn(C)c(C)c1/C=N/NC(=O)CCn1cc([N+](=O)[O-])cn1	-12.7%	-5.3%	21.1%	-4.9%	-5.4%	-4.2%	-4.8%	-2.1%
CCCCN1C(=O)CCC(C(=O)O)C1c1ccc(OC)cc1 (stereo not given)	-2.1%	-11.5%	6.3%	-11.0%	6.5%	-0.4%	-6.7%	1.6%
COc1cccc(NC(=S)N(CCN(C)C)Cc2cccs2)c1	-4.4%	5.0%	-4.3%	-0.2%[46.1 µM]	nt	5.8%	nt	nt
O=C(CN1C(=O)c2ccccc2S1(=O)=O)NCCSCc1cccc(Cl)c1	4.1%	-2.9%	0.7%	-0.2%	7.2%	8.2%	nt	nt
COc1ccc(-c2sc(Nc3ccccc3)n[n+]2-c2ccc(F)cc2)c(C)c1C	-16.9%	-6.8%	1.3%	nt	nt	?	nt	nt
COc1ccccc1-c1ccc(SCC(=O)NCc2ccc3c(c2)OCO3)nn1	-10.9%	nt	-0.9%	-3.5%[46.1 µM]	25.6%	-14.9%	nt	nt
COc1ccc(Cc2nnc(NC(=O)c3ccc(OC)c(OC)c3)s2)cc1OC	4.9%	nt	1.4%	-14.3%[46.1 µM]	-18.2%[46.1 µM]	-25.3%	nt	nt
COC(=O)c1ccc(NC(=O)c2ccc3nccnc3c2)cc1	0.0%	-16.8%	0.6%	-2.7%[46.1 µM]	0.5%[46.1 µM]	-3.3%	nt	nt
CCN(Cc1ccccc1)C(=O)CCS(=O)(=O)c1cc(Br)cc2c1N(C(=O)C1CC1)CC2	nt	nt	nt	?	11.7%[46.1 µM]	10.9%	-5.0%	-0.1%
CCN1C(=O)N(c2ccc(C(C)=O)cc2)S(=O)(=O)c2ccccc21	22.5%	-2.0%	-1.2%	nt	2.2%[46.1 µM]	-22.4%&-7.2%	-0.9%	0.6%
Cc1ccc(CNS(=O)(=O)c2ccc(-c3cnc(C4CC4)o3)cc2)cc1	-15.9%	-8.6%	1.0%	nt	-11.7%[46.1 µM]	-11.0%&-10.5%	-5.7%	-3.3%
COc1ccc(/C(N)=C/C(=O)C(C)(C)C)cc1	8.5%	-61.1%	-3.8%	6.2%	-21.6%	nt	-3.0%	-2.2%
CCOC(=O)C1CCN(C(=O)c2cc3c(C)cc(C)cc3[nH]2)CC1	-6.2%	-2.1%	-0.1%	nt	nt	31.4%[activator]	nt	nt
Cn1c(=O)c2c(SCC(=O)N3CCc4ccccc43)nc(-c3cccc(F)c3)nc2n(C)c1=O	nt	nt	nt	nt	-0.9%[46.1 µM]	-7.3%	-17.9%	5.3%
Cc1ccc(S(=O)(=O)Nc2cccc(S(=O)(=O)Nc3ccccc3C(=O)O)c2)c(C)c1	3.6%	nt	-6.6%	10.4%[46.1 µM]	-10.5%[46.1 µM]	4.5%	nt	nt
COc1ccc(C(=O)NC(=S)N2CCNC(=O)C2CC(=O)OC(C)C)cc1 (stereo not given)	15.2%	19.8%	1.1%	nt	nt	-1.5%	nt	nt
COc1cc2c(cc1OC)CN(CC(=O)Nc1ccc(S(=O)(=O)N(C)C)cc1)CC2	3.7%	nt	0.0%	0.7%[46.1 µM]	7.9%	-24.8%	nt	nt
O=C1NC(=O)/C(=C/C(=O)N2CCOCC2)S1	1.4%	1.4%	0.5%	nt	nt	-6.9%	nt	nt
CC(C)C1Cc2c(sc3c2c(=O)n(-c2ccccc2)c2n[nH]c(=S)n32)CO1 (stereo not given)	-13.5%	2.7%	-2.9%	nt	nt	-26.5%	nt	nt
O=C(CCCC(=O)N(CC(=O)NC1CCCC1)Cc1ccccc1Cl)Nc1ccccn1	-12.6%	-17.9%	9.0%	?	?	5.0%	-5.2%	3.9%
CCC(C)NC(=O)CCC(=O)Nc1ccc2nc(N3CC(C)CC(C)C3)cc(C)c2c1 (stereo not given)	1.1%	nt	0.2%	?	-27.0%[46.1 µM]	14.6%	nt	nt
Cc1ccc(C2CN(C)CC2C(=O)c2ccc(F)cc2)cc1 (stereo not given)	4.6%	?	1.1%	nt	nt	?	nt	nt
Cc1ccccc1N/C(SCc1ccc(Cl)cc1)=C(/C#N)C(=O)NCc1ccco1	-4.3%	7.1%	-6.6%	?	?	-20.6%	-4.7%	1.4%
Cc1ccc(C)c(Nc2nc(N)c3ccccc3n2)c1	-19.5%	nt	-3.1%	?	-8.4%[46.1 µM]	-24.5%	nt	nt

Bioassay records: PubChem BioAssay, National Center for Advancing Translational Sciences (NCATS)
